FEN1 inh: blocks human flap endonuclease 1. Recombinant FEN1 flap cleavage, fluorescence, 15 min. AID 588795. 390,000 tested, 0.35% active. Potency, µM (series often up to 114 µM), inactives show at the top dose activity change, negative = inhibition, hits mostly inhibitors; further: nearly all actives have a fitted effect of over 65% in size
Target sequence (P39748 whole entry, looked up): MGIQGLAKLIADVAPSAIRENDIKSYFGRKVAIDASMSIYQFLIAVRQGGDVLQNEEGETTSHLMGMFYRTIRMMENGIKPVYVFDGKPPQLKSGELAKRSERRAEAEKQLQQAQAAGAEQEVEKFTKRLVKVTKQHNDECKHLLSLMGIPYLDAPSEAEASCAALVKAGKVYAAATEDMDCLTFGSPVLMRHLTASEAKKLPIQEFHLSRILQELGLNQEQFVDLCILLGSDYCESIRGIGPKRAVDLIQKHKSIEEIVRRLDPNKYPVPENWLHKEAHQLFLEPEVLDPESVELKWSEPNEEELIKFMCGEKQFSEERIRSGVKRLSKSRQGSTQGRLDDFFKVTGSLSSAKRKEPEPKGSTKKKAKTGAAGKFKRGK
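FEN1 at 10 nM preincubated with compounds 15 min at room temperature, then flap DNA substrate added at 50 nM final. Signal read at 0 and 15 min; concentration-response fitted with four-parameter Hill equation.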
N370S GC: inhibits or activates N370S mutant glucocerebrosidase | P04062 | N370S GC spleen homogenate, 4MU-glucoside fluorescence | Potency, µM (titrated, usually from 59.4 µM), without a hit: at the highest dose activity change, negative = inhibition, usual class: inhibitors | 330,000 tested, 0.092% active | AID 2101;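 further: 0% = full enzyme activity and -100% = no enzyme basal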
An asterisk follows results filed as active; ? = inconclusive; . = not tested or not shown; & = joins results of further samples; [ ] = another dose, or the depositor's remark. The call rests on the fitted dose curve; in most records, active means well fitted curve in the direction sought with a large enough effect; inconclusive means small, poorly fitted or top-dose-only effect, or another doubt; inactive means no such curve, though single readings can be large; an effect the other way counts as inactive or inconclusive. Unless noted, on the % scale 0 is the no-effect control and ±100 the full control effect; potency means the concentration at half of the fitted maximal effect. Some of the compounds tested, and most or all hits are left out here.

SMILES	FEN1 inh	N370S GC
Cc1ccnc(NC(=O)CNC(=O)c2ccc3c(c2)OCO3)c1	-15%	0%
O=C(CCNC(=O)c1ccc([N+](=O)[O-])cc1)NCCc1ccc(Cl)cc1	-7%	-6%
CCOc1ccc(-c2nnn(CC(=O)Nc3ccccc3OC)n2)cc1OCC	1%	-1%
O=C(Cn1cnc2ccccc21)N/N=C/c1ccccn1	-4%	22%
CCOC(=O)c1noc2nc(C)n(Cc3ccc([N+](=O)[O-])cc3)c(=O)c12	17%	.
CCC=O	.	8%
CCOC(=O)CSc1ccc2nnc(-c3cccs3)n2n1	-8%	15%
COC(=O)c1cc2sc(Cl)cc2n1Cc1nc(-c2cccc(C)c2)oc1C	.	-12%
COc1cccc(NC(=O)NCCCSC2CCCCC2)c1	-17%	2%
COc1ccc(N2C(=O)CSC23C(=O)N(Cc2ccc(C)cc2)c2ccccc23)cc1Cl (centres undefined)	12%	.
O=C(Nc1ccc2nc(-c3ccccn3)c(-c3ccccn3)nc2c1)N1CCOCC1	-1%	6%
C/C=C/C(=O)OCC(=O)Nc1cccc(Br)c1	0%	-14%
Cc1ccc(C(=O)CSc2cc(C)nc(SCC(=O)c3ccccc3)n2)cc1	2%	-2%
O=c1[nH]nc(Cc2ccc(-c3ccccc3Cl)o2)c2ccccc12	-5%	-1%
CCc1ccc(NC(=S)N2CCNC(=O)C2CC(=O)OC)cc1 (centres undefined)	-5%	3%
CN(C)c1ccc(C2CC(c3ccccc3)=Nc3nc(-c4ccccc4)cn32)cc1 (centres undefined)	.	-16%
O=[N+]([O-])c1ccccc1/C=N/N1CCN(c2ccncc2S(=O)(=O)N2CCCCC2)CC1	-23%	3%
CCN1C(=O)C=CC1=O	.	-2%
CC1Sc2ccc(S(=O)(=O)N3CCC(C(N)=O)CC3)cc2NC1=O (centres undefined)	-4%	22%
CC(OC(=O)CCN=C1NS(=O)(=O)c2ccccc21)C(=O)NC1CCCCC1C (centres undefined)	2%	-4%

Entries of single compounds, quoted from the list. Screens in order: FEN1 inh, N370S GC
Cc1ccnc(NC(=O)CNC(=O)c2ccc3c(c2)OCO3)c1 in the list: -15%, 0%
O=[N+]([O-])c1ccccc1/C=N/N1CCN(c2ccncc2S(=O)(=O)N2CCCCC2)CC1 in the list: -23%, 3%
CCOC(=O)CSc1ccc2nnc(-c3cccs3)n2n1 in the list: -8%, 15%
O=C(CCNC(=O)c1ccc([N+](=O)[O-])cc1)NCCc1ccc(Cl)cc1 in the list: -7%, -6%
O=C(Cn1cnc2ccccc21)N/N=C/c1ccccn1 in the list: -4%, 22%

Back to the main list; the three compounds before the break are reprinted first.
SMILES	FEN1 inh	N370S GC
CCN1C(=O)C=CC1=O	.	-2%
CC1Sc2ccc(S(=O)(=O)N3CCC(C(N)=O)CC3)cc2NC1=O (centres undefined)	-4%	22%
CC(OC(=O)CCN=C1NS(=O)(=O)c2ccccc21)C(=O)NC1CCCCC1C (centres undefined)	2%	-4%
Cc1ccc(N=C2NC(=O)S/C2=C\c2ccco2)cc1	-22%	7%
COc1ccc2[nH]c(=O)c(CN(CCCN(C)C)C(=O)Nc3ccc(F)cc3)cc2c1	1%	-2%
CCCc1[nH][nH]c(=O)c1C(c1ccc(Br)cc1)C(C#N)C#N (centres undefined)	1%	-16%
Cn1c(N)c(S(=O)(=O)c2ccc(Br)cc2)c2nc3ccccc3nc21	-1%	27%
O=C(O)c1ccccc1C(=O)N1CCc2c([nH]c3ccccc23)C1C(F)(F)F (centres undefined)	-5%	4%
O=C(CCCn1c(=O)[nH]c2ccccc2c1=O)NCc1ccccc1Cl	-3%	.
CCOC(=O)c1ccc(NC(=O)CCOc2ccc(OC)cc2)cc1	-13%	5%
Cc1c(NC(=O)Cc2ccccc2)cccc1C(=O)NN1C(=O)c2ccccc2C1=O	-2%	-4%
CCS(=O)(=O)NCCc1cc2cc(C)c(C)cc2[nH]c1=O	-1%	7%
CCOc1ccc(C2CC(c3ccccc3C)n3nc(N)nc3N2)cc1 (centres undefined)	-9%	-5%
CC1C(=O)N2CCCc3cc(S(=O)(=O)Nc4ccccc4F)cc1c32 (centres undefined)	-5%	-2%
O=C(Nc1cccnc1Cl)c1cccc(S(=O)(=O)N2CCOCC2)c1	-16%	-4%
CN(C)c1nc(N2CCN(c3ccccc3)CC2)c(C#N)c(=O)o1	0%	28%
COc1cc(NC(=O)C2CCN(S(=O)(=O)c3ccc(Cl)cc3)CC2)ccc1-n1cnnn1	-19%	2%
Cc1ccccc1CC(=O)N1CCCC(CNC(=O)c2ccc(F)cc2)C1 (centres undefined)	22%	-1%
COc1cc(OC)cc(C(=O)Nc2cccc(-c3ccc(N4CCOCC4)nn3)c2)c1	-12%	4%
Cc1ccc(C)c(OCCC(=O)NNC(=O)c2cc(C)oc2C)c1	1%	.
Cc1cc(=O)n(CC(=O)NCCC(C)C)c2c1c(C)nn2C	-5%	.
Cc1cc(Cl)ccc1OC(C)C(=O)Nc1ccc(S(=O)(=O)Nc2cnc3ccccc3n2)cc1 (centres undefined)	-5%	-6%
CCOCCCN(C(=O)c1ccco1)C(C(=O)NC1CCCC1)c1ccc(OC)cc1 (centres undefined)	0%	1%
CCOc1ccc(C2C3=C(CC(C)(C)CC3=O)N(CC(=O)O)C3=C2C(=O)CC(C)(C)C3)cc1OCC	-6%	-7%
COc1ccc(CCN2CC(C(=O)O)CC2=O)cc1OC (centres undefined)	4%	2%
C=CCNc1ncnc2ccc(Br)cc12	2%	-18%
CCn1c(N)c(C(=O)NCc2ccc3c(c2)OCO3)sc1=S	6%	0%
CCn1c(CC(=O)Nc2ccc(C)c(Cl)c2)nnc1SCCOc1ccc(OC)cc1	0%	-2%
CCc1nn(C(CC)C(=O)NCCCc2ccccc2)c(=O)c2cc3occc3n12 (centres undefined)	4%	5%
Cc1cccc(Cc2nnc(CCC(=O)N(C)C3CCOC3)o2)c1 (centres undefined)	-14%	-10%
Cc1cc(C)cc(OCCSc2nc(-c3cccs3)nc3cc(=O)[nH]n23)c1	8%	.
CCCCNC(=O)Cc1c(OC)ccc2cc(Br)ccc12	1%	-19%
CC(=O)Nc1ccc(NC(=O)CSc2nnnn2-c2ccc3c(c2)OCCO3)cc1	-21%	3%
Cc1ccc(CN2CCSc3ccc(C(=O)NCCCN4CCN(C)CC4)cc32)cc1	-6%	?
COc1ccccc1OCCCOc1c(Cl)cc(C)cc1Cl	-13%	13%
COc1ccccc1NC(=O)CCn1cnc2ccccc2c1=O	7%	-5%
Nc1c(-c2ccccc2)sc2ccc3ccccc3[n+]12	-2%	-10%
COc1ccc2c(c1OC)C(=O)N1c3ccccc3C(=O)N(c3ccccc3F)C21 (centres undefined)	-4%	-14%
COc1ccc(-n2nc(C(=O)NCC(=O)N3CCN(c4cccc(Cl)c4)CC3)c3ccccc3c2=O)c(OC)c1	-18%	-3%
CC(C)c1ccc(NC(=O)C2C3C=CC4(O3)C2C(=O)N(CCN2CCOCC2)C4C(=O)NC2CCCCC2)cc1 (centres undefined)	1%	-5%
COc1cccc(N2CC(C(=O)Nc3nnc(SCC(=O)NCC4CCCO4)s3)CC2=O)c1 (centres undefined)	7%	-3%
CCNC(=O)NCCNC(=O)c1cc(OCC(F)(F)F)ccc1OCC(F)(F)F	-17%	3%
CC(C)(C)CC(=O)NCC(c1ccc2c(c1)OCO2)N1CCN(c2ccccc2)CC1 (centres undefined)	13%	.
Cc1ccccc1OCC(=O)Nc1ccccc1C(=O)N1CCCCC1	7%	-4%
Nc1ncnc2c1ncn2[C@@H]1O[C@H](CNCc2ccc(-n3cccn3)cc2)[C@@H](O)[C@H]1O	-6%	.
CN(C)c1cc(N/N=C\c2ccccc2)nc(N(C)C)n1	-26%	-13%
CCn1c(=O)c(C(=O)CN(C)Cc2ccc(F)cc2)c(N)n(Cc2ccccc2)c1=O	-10%	-2%
CCC(Oc1ccccc1)C(=O)Nc1ccc2oc(-c3ccc(OC)cc3)nc2c1 (centres undefined)	7%	.
Cc1ccc(OCCn2nc3ccccc3n2)c(C)c1	-15%	1%
CCOC(=O)c1cccc(NC(=O)CCn2nc(C)c(S(=O)(=O)N3CCCCC3)c2C)c1	9%&-2%	0%
Cc1cccc(C)c1OCC(O)Cn1nnc2ccccc21 (centres undefined)	4%	-15%[12.8 µM]
Cc1ccc(N2CC(C(=O)OCC(=O)c3ccc(F)cc3)CC2=O)cc1 (centres undefined)	16%	1%
CC(=O)N(C)c1ccc(NC(=O)C(F)(F)F)cc1	-7%	1%
O=C(CSc1c[nH]c2ccccc12)NC1CCCC1	-3%	-5%
C[C@@H](CN1C2=NC[C@H](Cc3ccc(O)cc3)N2C[C@H]1Cc1ccc(O)cc1)NC(=O)CCC1CCCCC1	15%	-19%
CNc1c(NS(=O)(=O)c2cc(NC(C)=O)ccc2C)c(=O)oc2ccccc12	-6%	-2%
CCc1ccc2c(CC(=O)Nc3nnc(C4CC4)s3)coc2c1	1%	1%
Cc1ccccc1C(=O)Nc1cccc(-c2nnc(SCC(=O)O)n2C)c1	12%	-14%
Cc1cc(NC(=O)CN2C(=O)NC(C)(c3ccc(Cl)cc3Cl)C2=O)no1 (centres undefined)	-9%	.
Cc1cc(=O)[nH]c(-c2ccccc2OC(F)(F)F)n1	-2%	-2%
O=C(O)CN1C(=O)c2ccc(Oc3cccc4c3C(=O)N(CC(=O)O)C4=O)cc2C1=O	-20%	2%
N/C(=N\OC(=O)c1ccc2ccccc2c1)c1ccc(Br)cc1	-5%	5%
COC(=O)COc1ccc(S(=O)(=O)N2CCc3ccccc3C2)cc1	2%	0%

Some values from the list:
FEN1 inh, O=C(CSc1c[nH]c2ccccc12)NC1CCCC1 : -3%
FEN1 inh, N/C(=N\OC(=O)c1ccc2ccccc2c1)c1ccc(Br)cc1 : -5%
N370S GC, CCc1ccc2c(CC(=O)Nc3nnc(C4CC4)s3)coc2c1 : 1%
FEN1 inh, Cc1ccccc1OCC(=O)Nc1ccccc1C(=O)N1CCCCC1 : 7%

Next section.
SMILES	FEN1 inh	N370S GC
CC(=O)Oc1ccc(-c2cccc(C(=O)NCCO)c2)cc1	1%	-2%
CC1C(=O)O[C@@H]2C[C@@H](C)[C@@H]3CCC(=O)[C@@]3(C)[C@@H](O)[C@H]12 (some centres undefined)	1%	1%
CC(=O)Nc1nc2c(c3c1c(=O)oc1ccccc13)CC(C)CC2 (centres undefined)	.	9%
Cc1cccc(-n2c(CNC(=O)c3ccc(S(=O)(=O)N4CCCCC4)cc3)n[nH]c2=S)c1	-3%	-4%
O=C(CN1CCOCCOCCOCCOCC1)Nc1ccccc1	7%	2%
CN(C)CCCOC1C(C(O)CO)OC2OC(C)(C)O[C@@H]21 (some centres undefined)	.	-1%
Nc1cc(Cl)c(N)cc1Cl	-5%	2%
O=C(O)c1cc(NS(=O)(=O)c2ccc(F)cc2)cc(NS(=O)(=O)c2ccc(F)cc2)c1	-6%	.
CN1CCN(S(=O)(=O)c2ccc3c(c2)NC(=O)CS3)CC1	-10%	-9%
CCOc1c2ccc(C(=O)NCc3ccc(OC(F)(F)F)cc3)cc2nn1CC	-17%	14%
Cc1cccc(C(=O)/C=C2/c3ccccc3CC(C)(C)N2C)c1	-7%	-5%
COc1ccc(OC(=O)c2cccc(S(=O)(=O)N3CC(C)OC(C)C3)c2)cc1 (centres undefined)	-19%	.
CCOc1ccc(NC(=O)CSc2nc3cccnc3n2CC)cc1	0%	26%
N#C/C(=C/c1cccs1)c1ccccn1	-8%	-4%
Cc1ccc(C(=O)COC(=O)CNC(=O)CNC(=O)c2ccc(C)cc2)cc1	-18%	22%
CCc1ccc2[nH]c3nc(SCC(=O)NCC4CCCO4)nnc3c2c1 (centres undefined)	-5%	-11%
O=S(=O)(NCc1ccncc1)c1ccc(S(=O)(=O)NCC2CCCO2)cc1 (centres undefined)	-1%	-2%
O=C1CC(c2ccccc2)CC2=C1C=Nc1ccccc1N2 (centres undefined)	-13%	12%
C=CCNC(=O)CCCC(=O)NCC=C	-13%	1%
COc1ccc(N(CC(=O)N2CCOCC2)S(C)(=O)=O)c(OC)c1	-1%	-6%
CCOC(=O)Nc1ccc2c(c1)N(C(=O)N1CCN(C)CC1)c1ccccc1S2	7%	-12%
O=C(Cc1ccc(-c2ccccc2)cc1)NC1CCCC1	3%	5%
COC(=O)c1ccc(C(=O)Nc2ccc(-c3nc4cc(NC(=O)c5ccc(C(=O)OC)cc5)ccc4o3)cc2)cc1	-11%	.
CCSc1ccccc1C(=O)NCCCn1ccnc1	-8%	-4%
CCOC(=O)c1c(C)[nH]c(C=O)c1Cc1cccc(Cl)c1	-3%	11%
O=C(c1ccncc1)c1ccc(N2CCN(C3CC(=O)N(Cc4ccccc4)C3=O)CC2)cc1 (centres undefined)	-16%	-14%
CC(C)CC1NC2(C(=O)N(C)c3ccccc32)C2C(=O)N(C(C)C)C(=O)C12 (centres undefined)	7%	15%
CC(/C=C/c1ccc2c(c1)OCO2)=N\NC(=O)c1ccccc1	2%	4%
O=C1CN(C(=O)COC(=O)C2CCN(S(=O)(=O)c3ccccc3C(F)(F)F)CC2)c2ccccc2N1	-16%	7%
O=C(c1ccc(F)cc1)N1CCCC(c2nc(-c3cccs3)no2)C1 (centres undefined)	17%	-1%
CN(C)S(=O)(=O)c1ccc(Cl)c(NC(=O)COC(=O)CN2C(=O)C3CCCCC3C2=O)c1 (centres undefined)	6%	2%
CCC(=O)c1ccc(N2CCN(C(=O)Cc3ccccc3)CC2)c(F)c1	4%	-8%
CCCc1nc2ccc(NC(=O)c3cccs3)cc2c(=O)n1Cc1ccc(Cl)cc1	-9%	8%
